Screening data deposited in PubChem BioAssay by Broad Institute.
Beta cell apopt – blocks beta cell apoptosis. INS-1E cytokine-induced death, ATP luminescence, 48 h; percent of positive-control rescue, neutral wells zero. protection from apoptosis, % (concentration not given with the values). actives 0.8% (n = 300,000);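 active means all replicates at 75% or more, or half of them and the mean; inconclusive means half reach 75% but not the mean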;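 further: 0% = cytokine-treated negative control wells and 100% = positive control rescue; higher means more ATP so stronger rescue from cytokine killing; wells of about 40 µL received 100 nL stock; the first replicate is given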
T cruzi inh – T. cruzi replication inhibition | T. cruzi beta-gal in NIH3T3, luminescence, 90 h | inhibition, % (no concentration beside the values) | actives 1.4% (n = 300,000) | AID 1885;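 active means mean inhibition across valid replicates above about 55%, limit read from the data; inconclusive means mean below that limit but half or more replicates reach it; inactive means mean below it, under half of replicates reach it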;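 further: signal also drops with host cell toxicity which is not excluded here; 0% = plate median of DMSO wells and 100% = zero luminescence signal; higher percent means less beta-gal luminescence so fewer parasites; stock transfer was 50 nL into about 50 µL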
A1 inh – inhibitors of the anti-apoptotic protein A1, read as caspase activation; AID 2462; MEF A1-2A-BIM cells, Caspase-Glo 3/7 luminescence, 3 h; percent of clofoctol response, vehicle zero; actives 0.066% (n = 330,000); caspase activation, % (no concentration beside the values);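 active means over half of replicate activation scores above 10%, or exactly half above 10 with the replicate mean above 10; inconclusive means replicate mean below 10 yet half the replicates above 10; inactive means over half of replicates below 10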;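 further: wells of about 30 µL received 50 nL stock; many hits fall short of the cut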
An asterisk follows results filed as active; ? = inconclusive. Some of the compounds tested; the hit share may differ from the screen's.

Structure,Beta cell apopt,T cruzi inh,A1 inh
COc1cccc(C2C3=C(N=c4s/c(=C\c5ccc(OCC(=O)O)cc5)c(=O)n42)c2ccccc2CC3)c1 (centres undefined),3,0,0.5
COc1ccc(/C=N/n2c(SC)nnc(C(C)(C)C)c2=O)cc1OC,-10,-3,0.3
Cc1ccc(C(=O)O/N=C(/c2nonc2N)N(C)C)cc1,0,2,0.0
Cc1cc(=O)[nH]c(N/N=C/c2ccco2)n1,-3,-11,-0.4
Nc1ccc(C(=O)N/N=C/c2ccccc2)cc1,6,-12,-0.5
Nc1nonc1C(=O)N/N=C/c1ccc(-c2cccc(C(=O)O)c2)o1,-5,46,-3.2
COc1ccc(Br)cc1/C=N/n1c(C)nnc1C,2,-18,1.1
C=CCNC(=S)N/N=C/c1ccc(-c2ccc(Br)cc2)o1,-1,?,0.0
C[N+]1(CCNC(=O)/C=N/O)CCCCC1,-11,-11,-1.4
O=[N+]([O-])c1ccccc1/C=N/N1CCN(c2ccc(Cl)cc2)CC1,1,16,-0.3
Cc1[nH]c2ccccc2c1/C=N/Nc1nc(Nc2ccccc2)nc(N2CCOCC2)n1,12,51,0.6
O=C(Cc1ccc(F)cc1)N/N=C/c1ccncc1,0,-15,-0.1
C/C(=N\NS(=O)(=O)c1ccc(C)cc1)c1ccc(C)s1,-3,-21,-1.1
O=CN1CCN(C(=O)c2ccccc2Cl)CC1,4,2,-0.4
COc1ccc(/C=N/NC(=O)c2c(C)n(C)c3ccc(OC)cc23)c(OC)c1,-1,-14,0.2

Reprinted from the entries so far, 7 compounds:
Structure,Beta cell apopt,T cruzi inh,A1 inh
C[N+]1(CCNC(=O)/C=N/O)CCCCC1,-11,-11,-1.4
O=[N+]([O-])c1ccccc1/C=N/N1CCN(c2ccc(Cl)cc2)CC1,1,16,-0.3
Cc1[nH]c2ccccc2c1/C=N/Nc1nc(Nc2ccccc2)nc(N2CCOCC2)n1,12,51,0.6
O=C(Cc1ccc(F)cc1)N/N=C/c1ccncc1,0,-15,-0.1
C/C(=N\NS(=O)(=O)c1ccc(C)cc1)c1ccc(C)s1,-3,-21,-1.1
O=CN1CCN(C(=O)c2ccccc2Cl)CC1,4,2,-0.4
COc1ccc(/C=N/NC(=O)c2c(C)n(C)c3ccc(OC)cc23)c(OC)c1,-1,-14,0.2

Returning to the listing; the 4 compounds before the break are reprinted first.
Structure,Beta cell apopt,T cruzi inh,A1 inh
O=C(Cc1ccc(F)cc1)N/N=C/c1ccncc1,0,-15,-0.1
C/C(=N\NS(=O)(=O)c1ccc(C)cc1)c1ccc(C)s1,-3,-21,-1.1
O=CN1CCN(C(=O)c2ccccc2Cl)CC1,4,2,-0.4
COc1ccc(/C=N/NC(=O)c2c(C)n(C)c3ccc(OC)cc23)c(OC)c1,-1,-14,0.2
CCN(CC)c1ccc(/C=N/N2CCOCC2)cc1,-7,-8,-1.7
CC(C)(C)N/N=C1\CC(c2ccccc2)Oc2ccccc21 (centres undefined),4,12,-0.4
COc1ccc(/C=N/NC(=O)C(Cc2c[nH]c3ccccc23)NC(=O)OCC(C)C)cc1[N+](=O)[O-] (centres undefined),3,-23,0.2
O=S(=O)(c1ccc(F)cc1)N1CCCC(CO)C1 (centres undefined),-8,-2,1.4
C/C(=N\OCC(=O)Nc1ccc(F)c(F)c1F)c1cc2ccccc2o1,3,-16,-0.4
CC(=O)N1CCC(=NNC(=O)c2cccs2)CC1,0,13,0.0
C/C(=N\NC(=O)c1cc(C)[nH]n1)C(C)(C)C,6,5,0.4
COCc1c(C(C)C)nc(C(C)C)c(/C=C/[C@@H](O)C[C@@H](O)CC(=O)O)c1-c1ccc(F)cc1,46,65*,2.3
CCCOc1ccc(Br)cc1/C=N/NC(=O)c1cc(OC)c(OC)c(OC)c1,3,-10,-0.6
O=C1C2C3C=CC(C3)C2C(=O)N1/N=C/c1cn(Cc2ccc(F)cc2)c2ccccc12 (centres undefined),-4,-6,1.0
CCC/C(O)=N\S(=O)(=O)c1ccc(N=NN(C)C)cc1,0,-1,0.4
Cc1ccc(NC(=S)N(Cc2ccco2)C2CCN(C(C)C)CC2)cc1,-9,-27,0.3
CCNC(=S)NCc1ccc2c(c1)OCO2,-5,10,-1.5
C(=N\n1cnnc1)/c1cccc(OCCOc2ccccc2)c1,-5,-5,0.1
Cc1ccsc1/C=N/n1c(-c2cccnc2)n[nH]c1=S,3,-9,0.4

(list continues)
Structure,Beta cell apopt,T cruzi inh,A1 inh
Cc1sc(/N=C/c2ccccc2O)c(C#N)c1C,2,-6,-2.5
Cc1ccsc1/C=N/Nc1ncc(Cl)cc1Cl,38,-18,-9.0
Cc1cc(/C=C(\C#N)C(=O)NC2CCCCCC2)c(C)[nH]1,-2,18,0.0
O=c1[nH]c(=S)[nH]c2[nH]c(=S)[nH]c12,-8,-3,0.8
COc1ccc(CCNC(=O)C/C(C)=N/NC(=O)c2ccc(N)cc2)cc1OC,-4,-10,0.3
S=c1[nH]nc(-c2ccccn2)n1/N=C/c1ccc(Br)s1,5,4,0.7
Cc1ccc(/C=N/N2CCN(Cc3cccc4ccccc34)CC2)o1,-2,-20,-0.1
CCNC(=S)N(CCc1cccc(C)c1)Cc1cc2cc(OC)c(OC)cc2[nH]c1=O,2,27,0.3
CCCCOc1ccc(Br)cc1/C(C)=N/NC1=NCCN1,56,45,-0.6
CC(=O)Nc1ccc(S(=O)(=O)N/N=C/c2ccc(C)s2)cc1,-6,11,-0.4
Cc1nnc(C)n1/N=C/c1cc(Br)cc(Br)c1O,-6,8,0.4
CC(/C=N/NC(=O)c1cc(-c2cccnc2)nc2c1c(C)nn2-c1ccccc1)=C\c1ccccc1,-5,30,0.3
O=[N+]([O-])c1ccccc1N/N=C\c1ccccc1Cl,8,-7,0.7
COc1ccc(C(=O)O/N=C/c2ccc(S(=O)c3ccc(Cl)cc3)nc2)cc1 (centres undefined),-6,-4,0.6
CCCn1c(/N=C/c2c[nH]c3ccccc23)nc2ccccc21,-5,-5,-0.2

The list continues.
Structure,Beta cell apopt,T cruzi inh,A1 inh
C(=N\N(c1ccccc1)c1ccccc1)/c1ccc2c(c1)OCO2,13,18,0.2
COC(=O)C/C=C/[C@@H](C)[C@@H](/C=N/O[C@@H](C)c1cn([C@H](CO)Cc2ccccc2)nn1)NS(=O)(=O)c1ccc(C)cc1,-6,28,-1.8
CC(C)CCNC(=O)CO/N=C/c1ccccc1OC(F)F,4,7,2.2
Cc1nn(C)cc1/C=N/NC(=S)Nc1ccc(Cl)cc1Cl,-5,8,-0.4
CC1CCC/C(=N\Nc2ccc(Cl)c(C(=O)O)c2)C1 (centres undefined),-2,-6,-0.8
COc1ccc(/C=N/NC(=O)Cn2nc(C)c([N+](=O)[O-])c2C)cc1,-4,-6,-0.8
COc1ccc(/C=N/NC(=O)c2ccoc2C)cc1COc1c(C)cccc1C,54,11,-1.4
COc1cccc(NC(=O)CSc2nc3ccccc3c(=O)n2CCCC(=O)N2CCCC2)c1,1,16,-0.5
CC(=O)c1ccc(NC(=O)CSCC(=O)Nc2ccc3ccccc3c2)cc1,-1,2,-0.7
Cc1oc(/N=C/c2ccc3c(c2)OCO3)c(C#N)c1C,-3,-7,1.1
CCC1(C)OCC(Cn2c3ccccc3c3ccccc32)O1 (centres undefined),-9,-4,0.0
CCOC(=O)c1ccc(-c2ccc(/C=N/NC(=O)CN(c3ccccc3Cl)S(C)(=O)=O)o2)cc1,2,17,-0.9
CCC(=O)NC(=S)Nc1ccc(NC(=O)c2ccc([N+](=O)[O-])cc2)cc1,-4,-9,-0.1
C/C(=N\NC(=O)CNc1cccc(C(F)(F)F)c1)c1ccc(Br)cc1,-6,5,0.1
O=c1c2cnn(-c3ccccc3)c2nnn1/N=C/c1cccnc1,-2,-18,-0.3

The list goes on.
Structure,Beta cell apopt,T cruzi inh,A1 inh
COc1cc(/C=N/NC(=O)c2cccnc2)ccc1OC(=O)c1ccc2c(c1)OCO2,-8,-4,-0.6
CCOC(=O)/C=c1\s/c(=C(\C#N)C(=O)OCC)n(-c2ccccc2)c1=O,-6,0,-1.0
CN(C)CCN1C(=O)C(O)=C(C(=O)c2cc3ccccc3o2)C1c1ccccn1 (centres undefined),-2,2,-0.4
COc1ccc(/C=N/NC(=O)Cn2c(Cc3ccc(OC)c(OC)c3)nc3ccccc32)cc1OC,-8,5,0.0
CCOc1cc(/C=C(\C#N)c2[nH]nc(N)c2C#N)ccc1O,-11,2,0.0
Cc1nnc(SCC(=O)N/N=C/c2cc(Cl)c(O)c(Cl)c2)s1,4,-16,0.4
Cc1ccc(/C=N/NC(=O)c2cccs2)cc1[N+](=O)[O-],-1,15,-3.6
Cc1ccc(/C=N\NC(=O)C2COc3cc4ccccc4cc3O2)o1 (centres undefined),-9,-1,-0.2
CC1(C)N=C(/C=N/O)C=[N+]1[O-],-6,-9,0.5
O=C(NC(=S)NCCc1ccccc1)c1ccco1,-8,-3,-0.4
CCC(=O)N(C)CCc1cc2c(c(OC)c1/C=N/NC(=O)c1ccc(Br)cc1)OCO2,3,4,0.0
O=C1c2cccc3cccc(c23)C(=O)N1CCN1CCN(C(=S)Nc2ccc(F)cc2)CC1,5,5,0.7
CC(/C=C/c1ccccc1)=N/NC(=O)c1cnccn1,1,-11,-0.6
COC(=O)c1ccc(/C=N\n2c(C)nnc2C)cc1,-5,-2,-1.0
CCn1ncc(/C=N\NC(=O)Cc2ccc([N+](=O)[O-])cc2)c1C,-7,-27,-0.9

(more compounds)
Structure,Beta cell apopt,T cruzi inh,A1 inh
O=C(N/N=C/c1cccc(F)c1)c1c(O)c2c([nH]c1=O)CCCC2,3,-3,-2.0
O=C(N/N=C\c1ccc(Sc2ccccn2)o1)c1cccc(Br)c1,-6,-7,-0.1
Cc1ccccc1C(=O)N/N=C/c1ccc(OCC(=O)N2CCCCC2)cc1,5,-8,0.4
Cc1nn(C)c(C)c1/C=N/NC(=O)CCn1nc(C)c([N+](=O)[O-])c1C,3,-4,0.8
COC(=O)c1scc(C)c1N/N=C(\C)c1ccc(F)cc1,0,14,1.6
O=C1C=C(NCCN2CCOCC2)C(=O)c2cnccc21,98*,-9,-0.5
Cc1cc(C(=O)N/N=C/c2cc(Br)cc([N+](=O)[O-])c2O)c2ccccc2n1,2,34,0.0
CC/C(=N/NC(=O)c1ccc(Br)o1)c1ccc(Cl)cc1,3,16,-0.9
Cc1noc(/C=C/N(C)C)c1S(=O)(=O)N1CCCC(C(=O)NCc2ccc(F)cc2)C1 (centres undefined),-6,16,-0.6
C(=N\n1cnnc1)/c1cn(-c2cccs2)nc1-c1ccccc1,-1,-7,-0.9
O=C(N/N=C/c1ccccc1Cl)c1ccc(F)cc1,-2,-1,-5.3
Cc1c(/N=C/c2ccco2)n(Cc2ccccc2)c2ccccc12,-1,-3,0.9
Cc1ccc(/C=N/n2cnnc2)s1,-16,-11,-0.4
COc1ccc(/C=N/NC(=O)c2nc(-c3ccccc3)cc(-c3ccccc3)n2)cc1OC,5,40,0.7
COc1cccc(/C=N/N2CCN(c3ccncc3S(=O)(=O)N3CCCCC3)CC2)c1,1,66*,-0.6
